Bioassay records as filed in PubChem.
TRPML1 blocker – human mucolipin-1 channel inhibition. TRPML1-inducible cells, Ca2+ dye fluorescence, FDSS; active compounds read low; inhibition of EC80 agonist-evoked calcium signal. activity change, negative = inhibition, % (test concentration not listed). hit rate 0.02% among 390,000; in the data active means activity change below about -50%; inconclusive means about -30% to -50%; inactive means above about -30%;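 also: stimulus is agonist 54-4 at its EC80 concentration; % is scaled to controls: 0 for no effect and ±100 for the full control effect; compound concentration not given in the record; the text of the record puts the active cut at -80%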
Target sequence (Q9GZU1 whole entry, looked up): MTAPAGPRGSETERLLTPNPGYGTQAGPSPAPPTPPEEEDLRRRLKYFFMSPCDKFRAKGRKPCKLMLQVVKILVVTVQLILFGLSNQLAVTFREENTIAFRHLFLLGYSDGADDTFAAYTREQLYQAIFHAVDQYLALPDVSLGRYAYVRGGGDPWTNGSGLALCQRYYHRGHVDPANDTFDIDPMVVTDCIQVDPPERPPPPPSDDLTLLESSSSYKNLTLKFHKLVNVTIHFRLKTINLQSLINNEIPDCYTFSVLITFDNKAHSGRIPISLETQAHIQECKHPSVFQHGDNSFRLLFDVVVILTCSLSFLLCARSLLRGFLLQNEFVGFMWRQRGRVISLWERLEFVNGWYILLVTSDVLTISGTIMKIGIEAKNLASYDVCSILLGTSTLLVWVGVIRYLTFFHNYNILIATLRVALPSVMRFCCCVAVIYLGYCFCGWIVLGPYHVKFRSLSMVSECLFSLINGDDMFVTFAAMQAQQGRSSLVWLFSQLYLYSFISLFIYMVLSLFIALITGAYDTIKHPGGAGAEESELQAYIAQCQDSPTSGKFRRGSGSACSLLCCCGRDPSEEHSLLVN
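TRPML1-DL cells, Tet-induced overnight (~16 h, 37 °C) at 1,500 cells/well, were loaded with Ca8 no-wash dye plus quencher for 45-90 min at room temperature. Compounds were pinned during FDSS kinetic reading; agonist 54-4 at EC80 (4 uM final) then added.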
TRPML1 ag – human mucolipin-1 channel agonism | Q9GZU1 | TRPML1-expressing cells, Ca2+ dye fluorescence, FDSS; host cell line not named in the record; reference of the full effect not given here | activation, % (no concentration beside the values) | hit rate 0.12% among 410,000 | AID 624414; in the data active = activation above about 50%; inconclusive = about 30% to 50%; inactive = below about 30%; also: 0% is about no effect; the text of the record puts the active cut at 80%
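Agonist activity was taken from a 110 s kinetic Ca2+ dye read on the FDSS after pinning compounds onto TRPML1-DL cells. The cells were seeded at 1,500/well with Tet inducer, incubated about 16 h, then dye-loaded at room temperature.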
TRPV1 PAM – enhances activation of the human vanilloid receptor TRPV1. TRPV1-expressing cells, Fluo-8 calcium influx, capsaicin EC20 potentiation; host cell line not named in the record; control for the full effect not named in the record. AID 540277. Q8NER1. hit rate 0.02% among 320,000. potentiation, % at 8.33 µM; active means potentiation above 80%; inconclusive means 30% to 80%; inactive means below 30%; also: 0% is about no effect
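TRPV1-expressing cells were cultured overnight at 35.5C and loaded with Fluo-8 calcium dye for 40 to 90 min at room temperature. After a 10 s baseline, compound was added and calcium influx was read kinetically for 3 min (ex 480/em 520 nm).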
D2 potentiator – positive allosteric modulators of human D2 dopamine receptor; P14416; DiscoveRx D2 beta-arrestin cells, luminescence, 90 min; 100% = 57 uM dopamine signal; potentiation, % (concentration not given with the values); hit rate 0.23% among 360,000; AID 624464; active = potentiation of 50% or more; inconclusive = 30% to 50%; inactive = 30% or less;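 also: compound concentration not given in the record; tested on top of an EC20 dose of dopamine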
Target sequence (P14416 whole entry, looked up): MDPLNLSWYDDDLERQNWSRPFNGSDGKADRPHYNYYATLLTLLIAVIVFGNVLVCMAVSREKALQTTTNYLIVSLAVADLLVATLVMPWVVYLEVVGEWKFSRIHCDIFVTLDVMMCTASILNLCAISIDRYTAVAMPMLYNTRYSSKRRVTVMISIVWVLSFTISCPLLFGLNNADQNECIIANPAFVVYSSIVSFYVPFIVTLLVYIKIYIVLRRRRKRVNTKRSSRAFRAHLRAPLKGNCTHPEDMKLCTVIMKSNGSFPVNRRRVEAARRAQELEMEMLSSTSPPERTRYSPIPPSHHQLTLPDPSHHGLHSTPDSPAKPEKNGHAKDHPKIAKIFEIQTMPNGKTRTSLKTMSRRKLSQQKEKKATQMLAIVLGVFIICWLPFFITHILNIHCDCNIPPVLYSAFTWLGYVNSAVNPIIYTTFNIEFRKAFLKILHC
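PathHunter D2 cells, attached overnight at 37 deg C, received compound in DMSO plus dopamine at EC20 (50 nM final) for 90 min at 37 deg C. Beta-arrestin recruitment was read as luminescence after 1 h with detection reagent at ambient temperature.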
CtBP-E1A blk – inhibitors of CtBP/E1A interaction | AlphaScreen GST-E1A/His-CtBP binding, 1536-well; active compounds read low; control for the full effect not named in the record | activity change, % (test concentration not listed) | hit rate 0.49% among 340,000; in the data active means activity change below about -65%; inconclusive means about -30% to -65%; inactive means above about -30%; also: % is scaled to controls: 0 for no effect and ±100 for the full control effect
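Protein mix (5X: 125 nM each GST-E1A, His-CtBP) was incubated with pinned compound 2 h at 37 deg C in dark, in 50 mM Tris pH 8.0 buffer with 300 mM NaCl. Glutathione donor and nickel acceptor beads followed; AlphaScreen signal read after 1 h.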
Six1-Eya2 blk – blocks human Six1 binding to Eya2. activity change, % (no concentration beside the values). hit rate 0.56% among 360,000. AlphaScreen GST-Six1/His-Eya2 binding, biochemical; active compounds read low; control for the full effect not named in the record. Q15475+O00167; in the data active = activity change below about -65%; inconclusive = about -30% to -65%; inactive = above about -30%; also: % is scaled to controls: 0 for no effect and ±100 for the full control effect
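Six1/Eya2 binding was read as AlphaScreen signal after compounds were pinned into GST-Six1 plus His-tagged Eya2 (5X stock 250/500 nM) in pH 8.0 Tris/NaCl/TCEP buffer, beads added, then incubated 1 h, 37 C, dark.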
* hit, by the source's call; ? = inconclusive; · = not tested or not shown; & = joins results of further samples.

cpd	canonical_smiles	TRPML1 ag	CtBP-E1A blk	D2 potentiator
1	O=C(Nc1nnc(SCC(=O)N2CCCCC2)s1)c1cccs1	-0.7	-3	-12
2	COc1ccccc1CNCc1cc(OC)c(OC)c(OC)c1	-0.8	3	-13
3	CCOc1ccc(CCNS(=O)(=O)c2c(C)nc3scc(C)n3c2=O)cc1OCC	0.9&-0.2	-25	-6
4	C/C(=N\NC(=O)c1ccco1)c1ccc(NC(=O)c2ccccc2)cc1	2.3	-16	-3
5	O=C(Nc1ccc(O)c2c(=O)cc(-c3ccccc3Cl)oc12)c1ccc(Cl)c(Cl)c1	0.3&-1.0	-9	1
6	Cc1cccc(N(C)C(=O)c2coc(=O)c3ccccc23)c1	0.0	1	-5
7	COc1ccc(/C=N/NC(=O)c2cccc(COCC(F)(F)C(F)F)c2)cc1	3.3	7	-2
8	O=C(CCC(=O)N1CCN(S(=O)(=O)c2ccc(Cl)cc2)CC1)Nc1ccc2ccccc2c1	1.3	24	-1
9	COc1ccc(NC(=O)Nc2ccon2)c(OC)c1	0.1	0	-4
10	Cc1ccc(NC(=O)c2ccc(Cl)c(S(=O)(=O)N3CCCCCC3)c2)nc1	1.4	8	-10
11	CC1=NN(C(=O)c2ccccc2Br)C(O)(c2cccnc2)C1 (configuration not stated)	-0.5	6	-9
12	Cc1c(C)n(C)c2ccc(C(=O)NCc3cccs3)cc12	-0.8	-17	-6

cpd	Six1-Eya2 blk	TRPV1 PAM	TRPML1 blocker
1	-1	4	-1
2	-8	4	7
3	1	1	-11&2
4	3	4	-4
5	-21	7	1&18
6	7	0	17
7	-11	-11	14
8	9	-2	-7
9	2	8	-10
10	-4	4	25
11	4	3	-15
12	-20	0	39

Further records:
cpd	canonical_smiles	TRPML1 ag	CtBP-E1A blk	D2 potentiator
13	CC(=O)c1cccc(NC(=O)CSc2nnnn2C2CCCC2)c1	0.6	22	-6
14	COC(=O)c1cc2c(cc1Cl)N1CCCCCC1=NS2(=O)=O	0.0	8	-1
15	Cn1c(=O)n(CC(N)=O)c2ccccc21	-0.6	6	5
16	CCC(Oc1ccc(C)c(C)c1)C(=O)N1CCCN(C)CC1 (configuration not stated)	-0.4	-7	-15
17	CNC(=O)N/N=C(\N)c1ccccn1	-0.5	·	-17
18	CCN(CC)S(=O)(=O)c1cccc(NC(=O)COC(=O)CCc2nc3ccccc3s2)c1	2.4	0	-10
19	CC(=O)Nc1cccc(NC(=O)CSc2nc(=O)n(CCN3CCOCC3)c3c2CCC3)c1	-0.4	-2	20
20	Cc1cccc(-n2ccnc2SCC(=O)Nc2cccc(S(=O)(=O)NC3=NCCC3)c2)c1C	0.8	-3	13
21	COc1ccc(CN(Cc2cccn2C)S(=O)(=O)c2ccc(F)cc2)cc1	3.9	-24	-8
22	O=C(Nn1cnnc1)C1CCCN1S(=O)(=O)c1ccc(F)cc1 (configuration not stated)	-0.1	19	-12
23	CCOc1ccccc1/C=C(/NC(=O)c1ccccc1)C(=O)N(CC)CC	-0.3	-1	-5
24	CCC(CC)c1nnc(NC(=O)CCNC(=O)c2ccccc2Cl)s1	0.6	0	5

cpd	Six1-Eya2 blk	TRPV1 PAM	TRPML1 blocker
13	11	1	-18
14	2	0	-5
15	4	-3	-6
16	-2	3	-1
17	-9	-7	-9
18	-9	4	-1
19	-1	5	13
20	-9	2	2
21	-21	-5	21
22	10	6	2
23	18	-32	24
24	-1	5	0

Continued:
cpd	canonical_smiles	TRPML1 ag	CtBP-E1A blk	D2 potentiator
25	O=C1[C@H]2[C@@H](c3ccccc3)N[C@]3(CCCN(Cc4ccc(Cl)cc4)C3=O)[C@H]2C(=O)N1Cc1ccccc1	1.1	-9	-11
26	Cc1ccc(S(=O)(=O)N(C)C)cc1NC(=S)N(C)C1CCN(C)CC1	1.1	5	-15
27	O=C(NCc1n[nH]c(=S)n1-c1cccc(Cl)c1)c1ccc(S(=O)(=O)N2CCCCC2)cc1	0.0	0	-16
28	CCOc1ccc(NC(=O)C2CCCN2C(=O)Oc2ccccc2)cc1 (configuration not stated)	-0.4	2	0
29	COc1ccc(CC(=O)Nc2c(C(=O)N3CCN(c4ncccn4)CC3)oc3ccccc23)cc1OC	5.7	6	-11
30	Cc1cc(C(F)(F)F)n(-c2ccc(N)cc2)n1	1.1	-14	1
31	Cn1ncc(Cl)c1C(=O)N1CCN(S(=O)(=O)c2ccc(F)cc2)CC1	-0.4	5	-1
32	NC(=O)c1ccccc1NC(=O)CCCN1C(=O)CCC1=O	1.3	4	-4
33	CN(CC(=O)Nc1ccc(C#N)cc1)Cc1ccc(Cl)cc1Cl	1.1	7	4
34	Cc1cccc(-n2nc3c(c2NC(=O)C2CC2)CS(=O)(=O)C3)c1C	4.3	·	-10
35	CC(C)n1c(=S)[nH]c2ccccc2c1=O	0.2	-1	-14
36	COc1ccc(CC(NC(C)=O)C(=O)NC2CCN(c3nc(C)cc(C)c3C#N)CC2)c(OC)c1 (configuration not stated)	-0.4	10	-13

cpd	Six1-Eya2 blk	TRPV1 PAM	TRPML1 blocker
25	-12	·	14
26	8	-11	-18
27	-3	?	-10
28	12	4	-13
29	-1	-3	-5
30	-5	15	27
31	-2	7	-5
32	0	9	8
33	5	-37	9
34	4	-12	14
35	1	14	0
36	3	-1	3

Reprinted at random: two entries already listed, in no set order.
cpd	canonical_smiles	TRPML1 ag	CtBP-E1A blk	D2 potentiator
12	Cc1c(C)n(C)c2ccc(C(=O)NCc3cccs3)cc12	-0.8	-17	-6
5	O=C(Nc1ccc(O)c2c(=O)cc(-c3ccccc3Cl)oc12)c1ccc(Cl)c(Cl)c1	0.3&-1.0	-9	1

cpd	Six1-Eya2 blk	TRPV1 PAM	TRPML1 blocker
12	-20	0	39
5	-21	7	1&18

Next part:
cpd	canonical_smiles	TRPML1 ag	CtBP-E1A blk	D2 potentiator
37	Cc1ccc(S(=O)(=O)Nc2cccc(-c3ccc4nnc(C)n4n3)c2)s1	-0.6	-6	2
38	Cc1cccc(NC(=O)c2cccc(OC(=S)N3CCOCC3)c2)c1C	0.5	3	-16
39	Cc1ccc(S(=O)(=O)N2CCOCC2)cc1NC(=O)COc1ccccc1Cc1ccccc1	1.9	1	-2
40	Cc1ccc(Cn2c(=O)c3ccccc3n3c(SCC(=O)N4CCCCC4C)nnc23)cc1 (configuration not stated)	1.4	7	-8
41	CCCSC1=N/C(=C\c2ccc3c(c2)OCO3)C(=O)S1	0.1	3	5
42	COc1ccc(C(=O)Nc2c(Cl)cc(Cl)cc2C(=O)NCCN2CCOCC2)cc1	-0.3	-10	-8
43	CC(C)C(CO)NC(=O)CC(=O)NC(CO)C(C)C (configuration not stated)	-0.2	11	-8
44	Nc1ccccc1-c1nnc(-c2ccccc2N)n1N	-0.1	-5	-21
45	Cc1cc2nc(CO)[nH]c2cc1C	-0.5	·	-1
46	COc1ccccc1N1CCN(c2nccc(C)n2)CC1	0.5	1	3
47	CCOC(CNC(=O)c1cccn2c(=O)c3c(C)c(C)sc3nc12)OCC	-0.6	·	-7
48	CC(=O)c1sc(NC(=O)c2cccc(C)c2)nc1C	-0.9	14	11

cpd	Six1-Eya2 blk	TRPV1 PAM	TRPML1 blocker
37	2	8	1
38	3	2	10
39	-3	·	34
40	6	-19	-17
41	5	-3	-17
42	2	-6	-9
43	7	4	0
44	1	-11	6
45	-3	9	-8
46	-1	-14	-1
47	6	-19	18
48	5	7	7

The list continues:
cpd	canonical_smiles	TRPML1 ag	CtBP-E1A blk	D2 potentiator
49	Cc1ccc(S(=O)(=O)N2CC(O)C[C@H]2C(=O)OCC(=O)Nc2ccc(N3CCOCC3)cc2)cc1C (some centres not stated)	0.5	8	-6
50	Cc1cc(NC(=O)CSCC(=O)Nc2nc3c(C)cccc3s2)no1	-0.5	-5	-4
51	C=CCOn1c(-n2nc(C)cc2C)nc2ccccc2c1=O	1.1	6	-1
52	COC(=O)CNC(=O)C1CCCN1C(=O)CNC(=O)OCc1ccccc1 (configuration not stated)	0.5	4	-4
53	NCCc1c(-c2ccccc2)n(-c2ccccc2)c2ccccc12	0.9	?	-14
54	COc1ccc2c(c1)C(C1=C(O)CC(C)(C)CC1=O)C1=C(CC(C)(C)CC1=O)O2 (configuration not stated)	2.7	-10	-7
55	C=Cc1cccc(NC(=O)c2ccc(NC(=O)c3ccco3)cc2)c1	0.1	-7	-6
56	O=C(NCCC1CCCCN1S(=O)(=O)c1ccccc1)C(=O)NC1CC1 (configuration not stated)	1.0	-9	-6
57	Cc1cc(C(=O)N/N=C/c2ccco2)c2ccccc2n1	1.0	0	8
58	O=S(=O)(N/N=C/c1ccc(F)cc1)c1ccccc1	1.0	4	-3
59	Cc1ccc(C(=O)COC(=O)CSc2cccc3cccnc23)c(C)c1	0.0	-77*	57*
60	CCCNS(=O)(=O)c1ccc(OCC(=O)OC)cc1	0.1	10	9

cpd	Six1-Eya2 blk	TRPV1 PAM	TRPML1 blocker
49	-13	-8	-3
50	1	3	-21
51	9	6	-8
52	9	13	15
53	-21	0	?
54	-10	7	4
55	-1	7	-13
56	11	11	-10
57	-2	8	23
58	0	7	-21
59	0	·	-5
60	4	6	2

Single records, from the list above. Order of screens: TRPML1 ag, CtBP-E1A blk, D2 potentiator, Six1-Eya2 blk, TRPV1 PAM, TRPML1 blocker
Cc1cc(C(=O)N/N=C/c2ccco2)c2ccccc2n1 reads 1.0, 0, 8, -2, 8, 23
CCCNS(=O)(=O)c1ccc(OCC(=O)OC)cc1 reads 0.1, 10, 9, 4, 6, 2
C=Cc1cccc(NC(=O)c2ccc(NC(=O)c3ccco3)cc2)c1 reads 0.1, -7, -6, -1, 7, -13
NCCc1c(-c2ccccc2)n(-c2ccccc2)c2ccccc12 reads 0.9, ?, -14, -21, 0, ?
COc1ccc2c(c1)C(C1=C(O)CC(C)(C)CC1=O)C1=C(CC(C)(C)CC1=O)O2 (configuration not stated) reads 2.7, -10, -7, -10, 7, 4

Continued.
cpd	canonical_smiles	TRPML1 ag	CtBP-E1A blk	D2 potentiator
61	COCCNC(=O)c1ccc(S(=O)(=O)c2ccc(Cl)cc2)c(NC(C)=O)c1	0.6	-2	1
62	COC(=O)c1cc(C(=O)N2CCN(c3ccccc3OC)CC2)cc([N+](=O)[O-])c1	-0.6	-3	-1
63	COc1cc(CNC2CCCCCC2)cc(OC)c1	-0.3	0	-12
64	COC(=O)C1=C(CSc2nncn2C)NC(=O)NC1c1ccc(F)cc1 (configuration not stated)	-0.3	-2	-13
65	O=C(NCC(c1cccnc1)N1CCN(c2ccccc2F)CC1)c1ccccc1 (configuration not stated)	-0.6	3	-3

cpd	Six1-Eya2 blk	TRPV1 PAM	TRPML1 blocker
61	6	10	-20
62	0	9	-12
63	-1	6	-8
64	3	14	-3
65	0	-8	3

Rows were taken by chance; any-hit rate near 0.95%.
